High-throughput results (PubChem BioAssay)
BJeLR viability = MLPCN primary cell-based screen for lethality selective to Ras in HRASV12 cells. inhibition, % (concentration not given with the values). hit rate 0.17% among 300,000. BJeLR (HRASV12) viability, CellTiter-Glo ATP luminescence, 48 h; reference of the scale not given here. AID 1554, 2009;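 active means replicate mean above 50%; inconclusive means above 50% but judged a plate artefact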;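 further: 50 nL library stock added to about 25 µL; numbers are from one replicate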
PrP UTR inh = inhibition of PrP 5' UTR reporter expression | cell-based PrP 5' UTR mRNA reporter, plate reader | inhibition, % (concentration not given with the values) | hit rate 0.35% among 340,000 | AID 488862, 2010;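 active means every replicate at 50% or more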;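 further: 0 = median of the neutral control wells; tested in H4 reporter cells; numbers are from one replicate; inactives centre near -14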
Mtb hypoxia rep = PubChem AID 1159583; M. tuberculosis hypoxia-regulated fluorescent reporter, fluorescence; fluorescence inhibition, % (concentration not given with the values); hit rate 0.1% among 300,000;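 active means 35 to 45% if threefold the growth effect, above 45% if 1.5-fold the growth effect; inactive means the rest, general growth blockers included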;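 further: wells of about 50 µL received 100 nL stock; 0% = vehicle wells and 100% = reference inhibitor wells; whole bacteria with a GFP reporter of the hypoxia response; strong numbers were not always called active; many hits fall short of the cut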
Autofluor counter = counter-screen for toxin protease inhibitors: compound fluorescence; compound autofluorescence counterscreen, microsphere flow cytometry; stronger effect = higher value; fluorescence intensity (test concentration not listed); hit rate 3.1% among 360,000; AID 624483;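 active means at least 3 SD above the mean of all compounds, about 16000 in these data; inconclusive means too few beads counted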;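 further: 100 nL of 1 mM stock went into each well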
ugtP null kill = growth inhibition of ugtP-null S. aureus, primary screen, RN4220 ugtP deletion, OD600; 16 h; some inactives read as strong as hits; hit rate 0.54% among 330,000; growth inhibition, % (test concentration not listed);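 active means z-score under -3 and OD600 up to 0.15 on both plates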;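 further: plate controls were untreated wells for no effect and antibiotic for full effect; wells of about 80 µL received 100 nL stock; the first replicate is given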
RN4220 kill = growth inhibition of S. aureus RN4220, primary screen, OD600; 16 h; inhibition, % (test concentration not listed); hit rate 0.33% among 330,000; AID 1259311, 2017;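 active means z-score of -3 or lower and OD600 up to 0.18 on both plates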;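 further: plate controls were untreated cells for no effect and reference antibiotic for full effect; stock transfer was 100 nL into about 80 µL; one replicate is shown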
Mtb hypoxia rep growth = recorded beside Mtb hypoxia rep, whose call it bears; growth inhibition, %; measured here: M. tuberculosis growth (absorbance);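 0% = vehicle and 100% = reference antibiotic; read after six days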
* marks the source's active call; other numbers are inactive results; ? = inconclusive; . = no result given; & = joins results of further samples.

SMILES	BJeLR viability	PrP UTR inh	Mtb hypoxia rep	Mtb hypoxia rep growth	Autofluor counter	ugtP null kill	RN4220 kill
O=C(CSc1ncnc2scc(-c3ccc(F)cc3)c12)c1ccc2c(c1)OCCO2	13	-4	12	11	2391	7	1.4
Cc1cccnc1NC(=O)c1ccc(S(=O)(=O)N2CCCCC2)cc1	11	-11	3	-5	6103	6	2.7
Cc1ccc(C(=O)NN=Cc2sccc2C)cn1	.	.	12	5	.	1	1.4
Cc1nc2ccc(C(=O)Nc3ccccc3Cl)cc2s1	9	-45	5	12	3694	6	5.1
COc1cccc(NC(=O)CN(C)CC(=O)Nc2cccc(C(F)(F)F)c2)c1	-1	-15	4	-4	4086	-8	2.4
Cc1c(Cl)cccc1N(CC(=O)N1CCCCCC1)S(C)(=O)=O	-3	-12	-6	0	9201	-8	0.1
O=C(c1ccc2c(c1)OCO2)C1CCCN(C(=O)Nc2ccc(F)cc2F)C1 (centres undefined)	-1	-4	5	0	.	-1	0.7
O=C(COc1ccccc1)N1CCN(Cc2c[nH]c3ccccc23)CC1	8	-17	-2	3	2928	0	8.8
CCOC(=O)C(NCCc1ccc(F)cc1)(NC(=O)CC)C(F)(F)F (centres undefined)	1	-23	2	-3	2096	1	6.4
CCOC(=O)C(C)C1(O)c2ccccc2-c2ncccc21 (centres undefined)	1	-23	9	18	23373*	2	4.9
O=C(N/N=C/c1cccs1)C(=O)Nc1cccc(Cl)c1	0	-12	.	.	2073	.	.
COc1ccc(OC)c(NC(=O)COC(=O)Cn2nnc(-c3ccccc3)n2)c1	.	3	4	3	3850	3	0.5
Cc1ccc(Br)c(NS(=O)(=O)c2cccc(C(=O)N3CCNC(=O)C3)c2)c1	.	-42	5	1	5065	3	3.5
CC(CC(F)(F)F)N1CCC(n2nccc2NC(=O)CCCc2ccccc2)CC1 (centres undefined)	-1	-8	9	10	5242	5	4.1
CC(NC(=O)Cc1ccsc1)c1ccc(S(N)(=O)=O)cc1 (centres undefined)	0	-12	10	11	3932	-4	2.6

(list continues)
SMILES	BJeLR viability	PrP UTR inh	Mtb hypoxia rep	Mtb hypoxia rep growth	Autofluor counter	ugtP null kill	RN4220 kill
Cc1ccc(N=Cc2c(O)n(-c3ccc4c(c3)OCO4)c(=O)c3ccccc23)cc1	-5	6	.	.	2286	-3	0.6
CCCc1[nH][nH]c(=O)c1C(c1ccc(Cl)cc1)C(C#N)C#N (centres undefined)	10	-14	2	0	10828	-10	0.7
O=c1[nH]cnc2c1nc(NCc1ccccc1)n2C1O[C@@H](CO)[C@H](O)[C@@H]1O (some centres undefined)	5	-7	1	1	3950	5	0.5
O=C(Nc1ccccc1Br)c1cccc2ccccc12	-5	.	14	8	4239	1	16
C#CCOC(=O)CCCC(=O)NCCCCCCCC	-3	-5	1	15	3591	-1	1.7
CC(Sc1nnnn1-c1ccc(O)cc1)C(=O)NNC(=O)c1ccc(F)cc1 (centres undefined)	.	-33	6	4	3862	10	2.3
COc1ccc(N(CC(=O)NCc2ccccc2OC)S(=O)(=O)c2ccccc2)cc1	-2	-8	-3	-4	3294	0	2.6
COc1cc2ccccc2cc1C(=O)Nc1ccc(C)cn1	8	-71	5	11	5577	-4	2.5
CC1(C)CC(=O)C=C(NC2CCCCC2)C1	6	-17	6	9	4654	1	4.1
Cc1cc2c(cc1C)NC(C)CC(=O)N2 (centres undefined)	.	-26	7	2	3886	0	0.5
C[C@H](CCC(=O)NCC(=O)O)[C@H]1CC[C@H]2[C@@H]3[C@H](O)C[C@@H]4C[C@H](O)CC[C@]4(C)[C@H]3C[C@H](O)[C@]12C	-6&-9	-4&-12&-9	.	.	4603&5317&5809	.	.
CCOc1cccc2cc(C(=O)Nc3ccccc3-c3ccccc3)c(=O)oc12	1	-37	2	-3	2250	-14	-4.8
CCOC(=O)CSc1nc2c(sc(=S)n2-c2ccc(CC)cc2)c(=O)[nH]1	0	-20	1	13	3594	6	10
O=C(CSc1nc2scc(-c3ccccc3)c2c(=O)[nH]1)N1CCOCC1	11	-6	11	9	6661	1	8.1
COc1ccc(S(=O)(=O)NCC2CCCN(C(=O)CNC(C)=O)C2)cc1 (centres undefined)	4	-16	15	7	3238	4	0.1

Additional structures.
SMILES	BJeLR viability	PrP UTR inh	Mtb hypoxia rep	Mtb hypoxia rep growth	Autofluor counter	ugtP null kill	RN4220 kill
O=S1(=O)CCC(n2nccc2-c2ccccc2)C1 (centres undefined)	13	-8	15	1	5236	1	2.9
CCOc1ccc(NC(=O)CSc2nc(O)c(C)c(=O)n2-c2ccc(F)cc2)cc1	-17	-6	6	13	4526	16	-1.4
CCOC1(/N=C(\C)NS(=O)(=O)c2ccc(Cl)cc2)C(C)=CC(=O)C=C1C	-8	-25	.	.	4279	.	.
N#Cc1cccc2c1-c1ccccc1/C2=N/NC(N)=S	-5	-8	.	.	4092	.	.
Cc1csc(NC(=O)CCn2c(=O)oc3ccc(Cl)cc32)n1	0	-13	15	-4	6184	-5	13
CCOc1ccc(NC(=O)Cn2nnc(-c3ccccc3F)n2)cc1	0	-21	11	7	8853	-7	-1.5
COCCn1cnc2c(c1=O)c1nc3ccccc3nc1n2/N=C/c1cccc(OC)c1	-3	-55	.	.	3589	.	.
Brc1cccc(CN2CCCCCCC2)c1	2	-17	-2	8	6283	-22	2.6
COc1ccc(S(=O)(=O)N2CCOCC2)cc1NC(=O)COC(=O)CCS(=O)(=O)c1ccc(C)cc1	.	46	-9	0	3782	6	5.0
O=c1[nH]c(C2CCN(S(=O)(=O)c3ccccc3F)CC2)nc2c1nnn2Cc1ccc(F)cc1	-6	-14	0	-8	4678	2	4.8
NC(=O)CCS(=O)(=O)CCN1CCCCC1	-10	-2	.	.	2120	-1	4.9
COc1ccc(C2C(=O)N(C3CCCCC3)CC(=O)N2C2CCCCC2)cc1 (centres undefined)	-1	.	-2	10	9530	1	0.2
Cc1cc(N2CCCC2)nc2c(C)cccc12	11	-14	11	6	3732	-1	9.8
CCc1ccc2oc(C(=O)NC3CCS(=O)(=O)C3)cc(=O)c2c1 (centres undefined)	-4	4	7	6	6270	1	1.8
O=C(O)c1ccccc1C(c1ccccc1)c1ccccc1O (centres undefined)	.	-10	14	11	3659	-2	2.1

Continued:
mol	BJeLR viability	PrP UTR inh	Mtb hypoxia rep	Mtb hypoxia rep growth	Autofluor counter	ugtP null kill	RN4220 kill
COc1cccc(CNc2nnnn2C)c1	-1	4	3	3	3263	-1	-2.8
CO/N=C(\Cn1ncc(N2CCCC2)c(Br)c1=O)c1ccc(Cl)cc1	-6	-9	.	.	2463	.	.
CC(Oc1ccccc1F)C(=O)/C=C/N(C)C (centres undefined)	6	-37	-4	1	9965	8	5.7
Cc1nn(Cc2cccc(C(=O)NN)c2)c(C)c1Cl	-4	-21	-3	-5	3757	5	4.7
O=C1CCCC(=O)C1C1c2ccccc2CCN1C(=O)CCl (centres undefined)	-2	.	1	2	4544	-2	0.8
O=C(NCCc1ccccc1)C1CC(=O)N(c2ccc3c(c2)OCCO3)C1 (centres undefined)	-1	-12	0	13	.	-4	-1.7
O=C(Nc1ccccc1F)Nc1cccc2ccc(O)cc12	-7	-33	3	8	2785	-1	-0.2
COCCCNc1nc(=S)[nH]c2cc(OC)c(OC)cc12	-1	-27	2	6	4040	8	4.0
CC1CCN(C(CNS(=O)(=O)c2ccccc2)c2ccccc2)CC1 (centres undefined)	.	-19	0	-3	2813	9	8.4
COc1ccc(CCN2CCCC(CN(C)Cc3cc(Cl)c(O)c(OC)c3)C2)cc1 (centres undefined)	9	-32	0	9	3867	9	2.9
COc1ccnc(CN(C)C(=O)C2CCC(=O)N(Cc3cccc(C(F)(F)F)c3)C2)c1 (centres undefined)	2	6	-10	1	?	-1	-3.2
COc1ccccc1NC(=O)/C=C\c1ccco1	7	-36	8	5	3971	0	1.4
C=CCN(c1ccccc1OC)S(=O)(=O)c1cccc(C(=O)NC2=NCCS2)c1	.	-13	-2	9	3744	5	7.1
CC(=O)Nc1ccc(NCC(=O)c2ccccc2)cc1	-7	-33	.	.	5173	.	.
CN(C)c1nc(N)nc(CSc2nnnn2C)n1	-7	-13	.	.	3762	0	0.6
C=CCC1(O)C(=O)Nc2ccccc21 (centres undefined)	-3	-23	-2	-1	2528	-1	3.2
Cc1cc(C)n(C(=O)c2cccc(S(=O)(=O)N3CCCCC3)c2)n1	6	2	-2	-21	3454	-3	3.0
Cc1ccc(-c2csc(N3CCN(CCCn4c(-c5ccncc5)nc5ccccc54)CC3)n2)cc1	-2	-8	-1	-4	3709	-5	-0.9
Cc1ccc(NC(=O)CNCc2cccs2)c(Br)c1	9	-4	-6	6	4187	1	7.1
CC(=O)N1CCc2cc(S(=O)(=O)CCC(=O)N3CCN(c4ccccn4)CC3)ccc21	3	-16	.	.	3938	6	2.2

Profiles, looked up by structure:
Results for O=C(NCCc1ccccc1)C1CC(=O)N(c2ccc3c(c2)OCCO3)C1 (centres undefined) : BJeLR viability: -1; PrP UTR inh: -12; Mtb hypoxia rep: 0; Mtb hypoxia rep growth: 13; Autofluor counter: .; ugtP null kill: -4; RN4220 kill: -1.7
Results for Brc1cccc(CN2CCCCCCC2)c1 : BJeLR viability: 2; PrP UTR inh: -17; Mtb hypoxia rep: -2; Mtb hypoxia rep growth: 8; Autofluor counter: 6283; ugtP null kill: -22; RN4220 kill: 2.6
Results for CCOC(=O)C(C)C1(O)c2ccccc2-c2ncccc21 (centres undefined) : BJeLR viability: 1; PrP UTR inh: -23; Mtb hypoxia rep: 9; Mtb hypoxia rep growth: 18; Autofluor counter: 23373*; ugtP null kill: 2; RN4220 kill: 4.9

A portion from further up:
mol	BJeLR viability	PrP UTR inh	Mtb hypoxia rep	Mtb hypoxia rep growth	Autofluor counter	ugtP null kill	RN4220 kill
COc1cccc(CNc2nnnn2C)c1	-1	4	3	3	3263	-1	-2.8
CO/N=C(\Cn1ncc(N2CCCC2)c(Br)c1=O)c1ccc(Cl)cc1	-6	-9	.	.	2463	.	.
CC(Oc1ccccc1F)C(=O)/C=C/N(C)C (centres undefined)	6	-37	-4	1	9965	8	5.7

Next part
mol	BJeLR viability	PrP UTR inh	Mtb hypoxia rep	Mtb hypoxia rep growth	Autofluor counter	ugtP null kill	RN4220 kill
CCOCCCNC(=O)c1ccccc1OC1CCN(S(C)(=O)=O)CC1	-7	-51	8	3	4349	4	4.4
CC(C)CN(C1CCS(=O)(=O)C1)S(=O)(=O)c1ccc(C(C)C)cc1 (centres undefined)	-1	-14	1	6	5217	4	0.5
O=C1CCNCCN1C(CO)c1ccccc1 (centres undefined)	.	.	6	11	.	0	2.8
C#Cc1cccc(NC(=O)CSc2nnc(-c3ccc(C(F)(F)F)cn3)o2)c1	-4	-32	9	5	5912	18	-5.1
COc1ccc(C)cc1NC(=O)CN(C)S(=O)(=O)c1cnc[nH]1	-1	9	5	-3	6200	13	8.0
CCN1CCCC1CNC(=O)Cn1ncc2c(=O)oc3ccc(C)cc3c21 (centres undefined)	-7	-7	3	4	4314	5	-0.7
COc1ccc(CNC(=O)c2ccc(Br)o2)cc1	0	-53	.	.	3869	-12	-13
COc1ccc(C(F)(F)F)cc1N/C=C/c1nnnn1-c1ccc2ccccc2c1	-1	-22	-7	4	.	2	-0.4
O=S(=O)(c1cc(C(F)(F)F)ccc1Cl)N1CCN(c2ncnc3ccccc23)CC1	.	-9	9	6	?	-2	8.4
O=C(Nc1cccc(O)c1)c1noc2c1CCc1ccccc1-2	8	-1	10	4	11829	17	1.7
CC(C)(C)N(Cc1nc(-c2ccccc2)no1)C(=O)c1ccc2c(c1)OCO2	-8	-9	12	9	4946	7	1.8
